PME-1 primary – PME-1 (human) inhibition; 320,000 tested, 0.53% active; inhibition, % at 5.9 µM; Q9Y570; recombinant PME-1, FP-Rh probe fluorescence polarization;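 active means inhibition above the campaign mean of all compounds plus 3 SD, cut at about 26% in these data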;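 further: competitive labeling of PME-1 active site by serine hydrolase directed probe; 0% = PME-1 with DMSO and 100% = wells lacking PME-1 enzyme; inhibitors block probe labeling so polarization falls and inhibition rises; many of its hits are not listed in these tables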
pPAFAH inh – pPAFAH (human) enzyme inhibition; recombinant pPAFAH, FP-rhodamine probe fluorescence polarization; AID 463082; 330,000 tested, 1.5% active; Q13093; inhibition, % at 3.39 µM;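 active means inhibition above the mean inhibition across the screen plus 3 SD, cut at about 25% in these data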;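 further: inhibitors block binding of the rhodamine activity-based probe so polarization drops; 0% = enzyme with DMSO and 100% = wells lacking pPAFAH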
Target sequence (Q13093 whole entry, looked up): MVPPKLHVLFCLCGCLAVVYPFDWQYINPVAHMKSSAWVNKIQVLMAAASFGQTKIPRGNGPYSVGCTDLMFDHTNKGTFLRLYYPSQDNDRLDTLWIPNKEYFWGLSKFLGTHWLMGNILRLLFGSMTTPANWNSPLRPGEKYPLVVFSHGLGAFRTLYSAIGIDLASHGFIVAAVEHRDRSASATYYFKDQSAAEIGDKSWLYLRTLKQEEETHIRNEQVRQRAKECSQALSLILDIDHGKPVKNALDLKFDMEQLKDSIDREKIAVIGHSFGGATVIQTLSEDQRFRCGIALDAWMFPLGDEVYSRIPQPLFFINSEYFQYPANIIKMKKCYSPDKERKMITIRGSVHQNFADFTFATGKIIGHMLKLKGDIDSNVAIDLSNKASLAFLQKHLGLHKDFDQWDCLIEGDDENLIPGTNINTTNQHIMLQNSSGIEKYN
PAD4 FP inh – inhibitors of human PAD4; 330,000 tested, 0.41% active; inhibition, % at 6.36 µM; recombinant PAD4, RCA probe fluorescence polarization; Q9UM07;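 active means percent inhibition above a cutoff equal to the mean of all tested compounds plus 3 SD, cut at about 15% in these data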;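 further: 0% = PAD4 with RCA probe and DMSO and 100% = probe without PAD4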
LYPLA1 inh – counter-screen for PME1 inhibitors: inhibitors of human LYPLA1; O75608; recombinant LYPLA1, FP-Rh probe fluorescence polarization; inhibition, % at 5.9 µM; 320,000 tested, 0.16% active; AID 2174;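 active means inhibition above the mean of all tested compounds plus 3 SD, set per campaign, cut at about 14% in these data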;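 further: inhibitors block serine hydrolase probe labeling of LYPLA1 so polarization falls; 0% = enzyme with DMSO and 100% = wells lacking LYPLA1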
Target sequence (O75608 whole entry, looked up): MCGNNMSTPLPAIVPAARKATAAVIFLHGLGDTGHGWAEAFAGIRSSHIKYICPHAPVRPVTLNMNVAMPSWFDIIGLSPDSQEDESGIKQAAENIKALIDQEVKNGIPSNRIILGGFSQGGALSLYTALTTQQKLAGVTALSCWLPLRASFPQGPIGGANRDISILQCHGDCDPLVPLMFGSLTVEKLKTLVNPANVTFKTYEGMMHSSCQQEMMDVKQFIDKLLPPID
PREPL inhibitor – human PREPL enzyme inhibition; inhibition, % at 5.96 µM; recombinant PREPL, fluorescence polarization activity-based probe; AID 2751; Q4J6C6; 320,000 tested, 0.68% active; in the data active means inhibition above about 43%;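 further: 0% = enzyme with DMSO and 100% = wells lacking enzyme; many of its hits are not listed in these tables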
PAFAH1B3 inh – blocks human PAF acetylhydrolase 1B catalytic subunit 3 | Q15102 | inhibition, % at 3.39 µM | 340,000 tested, 0.28% active | AID 492972 | recombinant PAFAH1B3, FP-rhodamine probe, fluorescence polarization;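 active means inhibition above the screen-wide average of all tested compounds plus 3 SD, cut at about 25% in these data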;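 further: 0% = enzyme with DMSO only and 100% = wells lacking PAFAH1B3 protein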
Target sequence (Q15102 whole entry, looked up): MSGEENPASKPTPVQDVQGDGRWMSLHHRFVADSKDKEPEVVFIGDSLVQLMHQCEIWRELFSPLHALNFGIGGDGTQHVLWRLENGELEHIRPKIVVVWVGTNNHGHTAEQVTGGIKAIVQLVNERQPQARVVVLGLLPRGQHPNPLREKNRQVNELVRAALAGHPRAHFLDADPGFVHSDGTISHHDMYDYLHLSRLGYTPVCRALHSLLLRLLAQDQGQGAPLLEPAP
GSTO1 inh – blocks human GSTO1 in RBBP9 counter-screen | P78417 | recombinant GSTO1, activity-based probe fluorescence polarization | inhibition, % at 5.96 µM | 300,000 tested, 1.1% active | AID 1974;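 active means inhibition above the campaign mean inhibition plus 3 SD, cut at about 35% in these data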;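 further: 0% = GSTO1-1 with DMSO and 100% = wells lacking GSTO1-1 enzyme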
LYPLA2 inh – counter-screen for PME1 inhibitors: inhibitors of human LYPLA2; recombinant LYPLA2, FP-Rh probe fluorescence polarization; 320,000 tested, 0.38% active; inhibition, % at 5.9 µM; AID 2177; O95372;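 active means inhibition above the screen-wide mean plus 3 SD, limit set per campaign, cut at about 26% in these data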;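 further: 0% = LYPLA2 with DMSO and 100% = wells lacking LYPLA2 enzyme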
Numbers without * were called inactive; . = no result given. Some of the compounds tested (hit frequency here may not be typical).

cpd	SMILES	PME-1 primary	pPAFAH inh	PAD4 FP inh	LYPLA1 inh
1	O=c1c(/C=N/OCc2ccc(Cl)cc2Cl)c[nH]n1-c1cccc(Cl)n1	2	9	-2	3
2	O=C(CCn1cccc1)NCCc1ccc(Cl)cc1	-3	5	-2	2
3	O=C(O)[C@H](Cc1ccccc1)NC(=O)N1CCC(Cc2ccccc2)CC1	-7	-1	42*	1
4	Cc1noc(C)c1S(=O)(=O)N1CCCC(C(=O)NCCc2ccc(Cl)cc2)C1 (configuration not stated)	-2	4	4	-4
5	O=S(=O)(Nc1ccccn1)c1cccc(S(=O)(=O)c2ccc(Br)cc2)c1	8	1	-5	-3
6	Cc1ccc(S(=O)(=O)N/N=C2/CCCCC2C2CCCCC2)cc1[N+](=O)[O-] (configuration not stated)	1	3	-3	4
7	CCCc1cc(=O)[nH]c(SCC(=O)Nc2ccc(S(=O)(=O)N3CCCC3)cc2)n1	.	-4	6	.
8	CCOC(=O)c1c(NC(=O)C(C)N2CCN(S(=O)(=O)c3cccs3)CC2)sc2c1CCC(C)C2 (configuration not stated)	-2	4	1	-1
9	O=C(Nc1nnc(COc2ccc(Cl)cc2)s1)c1ccco1	-2	1	-2	0
10	O=S(=O)(Cc1ccc(Cl)cc1)c1ncc(CO)n1Cc1ccccc1	-5	1	-9	1
11	O=C(CN1C(=O)c2ccccc2C1=O)N1CCN(c2nnc(-c3ccccc3)c3ccccc23)CC1	2	0	0	-1
12	O=C(COc1ccc(Cl)cc1)Nc1ccc(C(=O)O)cc1NC(=O)COc1ccc(Cl)cc1	-3	-10	-4	-12
13	C/C(=N/OC(=O)c1ccccc1Br)c1ccc(C)cc1	-1	16	2	-2
14	COc1ccccc1C(C)NC(=O)CCC(=O)N1CCN(S(=O)(=O)c2ccc(Cl)cc2)CC1 (configuration not stated)	.	.	.	.
15	Cc1c(NC(=O)COC(=O)C(c2ccc(Cl)cc2)C(C)C)c(=O)n(-c2ccccc2)n1C (configuration not stated)	-1	4	3	1

cpd	PREPL inhibitor	PAFAH1B3 inh	GSTO1 inh	LYPLA2 inh
1	0	8	-2	2
2	-1	7	-9	-3
3	-10	4	2	2
4	0	0	0	1
5	6	2	20	0
6	-1	9	6	7
7	15	8	.	.
8	6	3	-1	-2
9	-2	6	-7	-6
10	-20	-2	5	0
11	2	13	-3	4
12	-16	0	-12	-5
13	18	12	4	2
14	.	1	.	.
15	-3	4	-1	-2

Printed as active in PAD4 FP inh, among the entries above:
item | compound | PME-1 primary | pPAFAH inh | PAD4 FP inh | PREPL inhibitor | PAFAH1B3 inh
3 | O=C(O)[C@H](Cc1ccccc1)NC(=O)N1CCC(Cc2ccccc2)CC1 | -7 | -1 | 42* | -10 | 4

One compound at a time (already shown). Values in the order: PME-1 primary	pPAFAH inh	PAD4 FP inh	LYPLA1 inh	PREPL inhibitor	PAFAH1B3 inh	GSTO1 inh	LYPLA2 inh
Listed for O=C(COc1ccc(Cl)cc1)Nc1ccc(C(=O)O)cc1NC(=O)COc1ccc(Cl)cc1 : -3	-10	-4	-12	-16	0	-12	-5
Listed for COc1ccccc1C(C)NC(=O)CCC(=O)N1CCN(S(=O)(=O)c2ccc(Cl)cc2)CC1 (configuration not stated) : .	.	.	.	.	1	.	.
Listed for C/C(=N/OC(=O)c1ccccc1Br)c1ccc(C)cc1 : -1	16	2	-2	18	12	4	2

New compounds follow.
cpd	SMILES	PME-1 primary	pPAFAH inh	PAD4 FP inh	LYPLA1 inh
16	O=C(O)c1cccc(S(=O)(=O)Nc2ccccc2-c2ccccc2)c1	-3	-5	-7	-2
17	O=c1cc(CSc2ccc(Cl)cc2)nc(-c2ccncc2)[nH]1	-4	3	2	2
18	Cc1cc(=O)oc2c3c(cc(OCC(=O)N[C@@H](Cc4ccccc4)C(=O)O)c12)OC(C)(C)CC3	7	18	3	0
19	COc1cc(/C=C/C(=O)OCC(=O)N2CCN(S(=O)(=O)c3ccc(C)cc3C)CC2)ccc1O	-4	11	-4	-1
20	Cc1ccc(C2(c3noc(CN(C)Cc4cccnc4)n3)CCCC2)cc1	1	5	-4	2
21	COc1ccc(S(=O)(=O)N2CCc3ccccc32)cc1C(=O)N(CC(C)C)C1CCS(=O)(=O)C1 (configuration not stated)	2	3	-2	4
22	O=C(CN1CCOCC1)N1CCN(c2nnc(-c3ccccc3)c3ccccc23)CC1	3	-3	1	-1
23	CCCCNC(=S)NNc1c(Cl)cc(Cl)cc1Cl	9	3	-2	-2
24	CC(=O)NCCNC(=O)c1ccc(CSc2ccc(Cl)cc2)cc1	-6	2	-3	0
25	CCCc1[nH]nc2c1C(C1CCCCC1)C(C#N)=C(N)O2 (configuration not stated)	0	-1	2	4
26	O=C(/C=C/c1ccc(Cl)c([N+](=O)[O-])c1)Nc1ccc(NC(=O)c2ccco2)cc1	.	.	.	.
27	O=C(CSc1nnc(NC(=O)Cc2ccc(F)cc2)s1)NCc1ccco1	3	4	-4	2
28	CC1CCN(S(=O)(=O)c2ccc(C(=O)Nc3nnc(C4CC4)o3)cc2)CC1	-4	3	4	0
29	Cc1ccccc1NC(=S)NNC(=O)c1cccnc1	-2	-1	-2	0
30	O=S(=O)(c1ccc2ccccc2c1)n1cnc2ccccc21	7	2	-1	-5

cpd	PREPL inhibitor	PAFAH1B3 inh	GSTO1 inh	LYPLA2 inh
16	3	10	-7	-2
17	-10	-5	-21	-2
18	3	-2	-7	8
19	0	4	-4	-5
20	1	3	8	0
21	20	4	2	6
22	12	5	1	-4
23	-2	-3	-1	-1
24	12	13	21	8
25	0	3	2	4
26	.	-8	.	.
27	5	9	-4	3
28	-9	11	2	0
29	-6	4	7	-3
30	7	2	-1	3

Additional entries
cpd	SMILES	PME-1 primary	pPAFAH inh	PAD4 FP inh	LYPLA1 inh
31	CCOC(=O)Cn1ncc2c3ccccc3n(CC(=O)OCC)c2c1=O	1	-3	-2	-5
32	Cc1[nH]c(=O)[nH]c(=O)c1S(=O)(=O)NCC12CC3CC(CC(C3)C1)C2	2	-1	1	3
33	O=C(NCCc1ccccc1)c1cccnc1N1CCCCCC1	2	2	-6	1
34	CCCN(C(=O)C1CCCN(c2ncnc3c2nc2n3CCCCC2)C1)c1ccc(F)cc1 (configuration not stated)	5	4	-2	3
35	O=C(c1ccc(Cl)c([N+](=O)[O-])c1)N1CCN(S(=O)(=O)c2ccc(Cl)cc2)CC1	5	3	-5	2
36	C/C(=N/NC(=O)CN1CCN(S(=O)(=O)c2ccc(Br)cc2)CC1)c1cccnc1	6	6	0	1
37	COC(=O)c1sc(C(F)(F)F)c(-c2ccccc2)c1S(=O)(=O)NC(C)(C)C	-1	0	1	1
38	O=C(CSc1ccc(Br)cc1)NCC1CCCO1 (configuration not stated)	2	1	0	0
39	Cc1cc(S(=O)(=O)Nc2c(C(=O)O)[nH]c3ccccc23)ccc1F	-5	4	1	0
40	O=S(=O)(c1ccccc1)n1ccc2ccccc21	-4	4	-1	-4
41	Cc1[nH]c(C(=O)O)c(C#N)c1C(=O)c1ccccc1	-4	6	1	0
42	CC1(C)NC(=O)N(CCCSc2ccc(Cl)cc2)C1=O	13	9	-2	3
43	CC(=O)N/C(=N\OCc1ccc(Br)cc1)c1nonc1NC(C)=O	-5	-10	-8	2
44	CC(=O)c1ccc(NC(=O)C2CC(c3ccc(F)cc3)=NO2)cc1 (configuration not stated)	-2	3	0	0
45	CC(C)CC(NS(=O)(=O)OCC(Cl)(Cl)Cl)c1ccccc1 (configuration not stated)	0	8	0	-2

cpd	PREPL inhibitor	PAFAH1B3 inh	GSTO1 inh	LYPLA2 inh
31	7	5	3	-4
32	5	10	-4	-1
33	21	2	8	-1
34	7	4	2	-2
35	13	9	.	4
36	10	3	4	2
37	-2	-7	10	3
38	5	2	8	1
39	17	9	-47	-4
40	-21	0	2	4
41	1	11	5	1
42	17	11	1	9
43	-10	9	-2	-2
44	-17	8	-6	-4
45	10	6	0	-8

(cont.)
cpd	SMILES	PME-1 primary	pPAFAH inh	PAD4 FP inh	LYPLA1 inh
46	CC(C)CN(c1ccccc1)S(=O)(=O)c1nnc(NC(=O)c2ccco2)s1	0	4	-2	-2
47	CCOC(=O)c1c(NC2=NS(=O)(=O)c3ccccc32)sc2c1CCC(C)C2 (configuration not stated)	-6	2	-2	-1
48	O=S(=O)(NCCSc1ccccc1)c1cccs1	6	13	3	5
49	Clc1ccc(SCCn2cncn2)cc1	2	4	4	2
50	C=CCn1c(CSCc2ccc(C)cc2)nnc1SCC(=O)NCc1ccccc1	5	8	-1	1
51	O=C(COC(=O)Cc1ccc(Cl)c(Cl)c1)NCc1ccco1	1	11	-5	-2
52	O=C(O)C1=CC[C@@H](c2ccc(Cl)cc2)N(S(=O)(=O)c2ccc(Cl)cc2)[C@H]1c1ccccc1	-5	10	4	-6
53	O=S(=O)(Nc1cccc(CCc2ccccn2)c1)c1ccc2ccccc2c1	.	.	.	.
54	Clc1ccc(SCc2cc(-c3ccccc3)on2)cc1	-4	3	2	-3
55	O=C(CCn1cncn1)N1CCN(S(=O)(=O)c2ccc(Cl)cc2)CC1	5	0	-3	2
56	CC1CCCC(C)N1C(=O)CSCc1ccc(Cl)cc1 (configuration not stated)	1	8	2	5
57	O=C(O)CSc1nnc(-c2ccc(Cl)cc2)n1-c1ccccc1	-1	0	-4	1
58	O=C(O)CCc1ccc(S(=O)(=O)Nc2ccccc2N2CCCCC2)cc1	.	0	0	.
59	Cc1ccc(C2OC(=O)C=C2c2ccccc2)cc1 (configuration not stated)	-6	1	0	0
60	N/C(Cc1ccc(Cl)cc1Cl)=N\OC(=O)Cc1cccs1	1	8	-4	4
61	CCC1(c2ccccc2)NC(=O)N(CC(=O)Nc2ccccc2N2CCCCC2)C1=O (configuration not stated)	-1	7	0	-2

cpd	PREPL inhibitor	PAFAH1B3 inh	GSTO1 inh	LYPLA2 inh
46	-5	-1	-66	-3
47	-1	-3	-1	-4
48	-18	5	4	2
49	-14	4	3	-4
50	11	9	1	-2
51	12	2	1	0
52	-1	12	-111	-7
53	.	0	.	.
54	-12	-6	-1	0
55	-1	2	-5	4
56	13	12	-6	14
57	1	7	-12	6
58	17	1	.	.
59	-11	-5	1	4
60	11	7	7	-4
61	6	0	3	-5

Structures shown so far with a cyano group, in the order listed:
cpd	SMILES	PME-1 primary	pPAFAH inh	PAD4 FP inh	LYPLA1 inh
25	CCCc1[nH]nc2c1C(C1CCCCC1)C(C#N)=C(N)O2 (configuration not stated)	0	-1	2	4
41	Cc1[nH]c(C(=O)O)c(C#N)c1C(=O)c1ccccc1	-4	6	1	0

cpd	PREPL inhibitor	PAFAH1B3 inh	GSTO1 inh	LYPLA2 inh
25	0	3	2	4
41	1	11	5	1

Assay outcomes from PubChem BioAssay.
